HCMV UL50-53 inh = disrupts HCMV UL50-UL53 complex binding; HTRF UL50-UL53 interaction, normalized percent inhibition; AID 1918969; inhibition, % (test concentration not listed); 0.15% of 190,000 active;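 active = both replicates at 50% or more, plus weaker picks with an unusually low signal ratio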;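 note: stock transfer was 100 nL into about 20 µL; 0% = negative control wells and 100% = wells with untagged competitor protein; inactives centre near -12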
GIV-Gai inh = blocks GIV peptide binding to rat Galpha-i3 | percent of control (FP), % (test concentration not listed) | AID 1224905 | P08753 | Galpha-i3/FITC-GIV peptide fluorescence polarization, 90 min; hits give low values; scaled: aluminum fluoride 0%, vehicle 100% | 0.42% of 210,000 active;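 active = replicate mean at 85% of control or lower, very high polarization wells dropped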;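 note: wells of about 15 µL received 100 nL stock; the first replicate is given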
Target sequence (P08753 whole entry, looked up): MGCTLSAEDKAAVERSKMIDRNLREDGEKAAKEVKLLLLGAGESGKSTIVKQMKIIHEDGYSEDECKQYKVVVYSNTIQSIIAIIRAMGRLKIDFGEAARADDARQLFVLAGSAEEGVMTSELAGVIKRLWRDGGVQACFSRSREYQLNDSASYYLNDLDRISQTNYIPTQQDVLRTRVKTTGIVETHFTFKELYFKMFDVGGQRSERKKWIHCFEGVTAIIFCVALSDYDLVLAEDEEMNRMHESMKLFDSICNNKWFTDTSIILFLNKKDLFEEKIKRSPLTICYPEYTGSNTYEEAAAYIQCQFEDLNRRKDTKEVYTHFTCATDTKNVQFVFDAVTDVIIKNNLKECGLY
Sa growth inh = inhibitors of Staphylococcus aureus growth at 42 °C; S. aureus RN4220 growth, OD600, 20 h; hits give low values; relative growth, % (test concentration not listed); 0.53% of 170,000 active; AID 720641;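 active = growth at 42 °C up to 50% and 20 or more points under that at 30 °C, or under 10% at both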;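 note: 300 nL library stock went into each well; scaled to the means of positive and negative controls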
Sa growth inh second temp = also measured in Sa growth inh; calls as there; relative growth, %; measured here: growth at 30 °C;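 optical density after 20 h as mean of two plates; 100% = untreated growth and lower means inhibition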
An asterisk follows results filed as active; . = not tested or not shown; & = joins results of further samples; ! = repeats disagree. No enrichment for hits. Share with any hit: about 0.8%.

SMILES | HCMV UL50-53 inh | GIV-Gai inh | Sa growth inh | Sa growth inh second temp
CCOc1ccc(Cc2nc(C)c(CC(N)=O)c(=O)[nH]2)cc1 | -10 | 98 | 95 | 93
CCNc1nc(NCC)n2c(SCC3CN(Cc4ccccc4)CCO3)nnc2n1 (stereo not drawn) | -22 | . | 96 | 82
O=c1[nH]c(-c2ccsc2)nc2sc3c(c12)CCC3 | -21 | . | 93 | 89
Clc1cccc(-c2nn3c(-c4cccnc4)nnc3s2)c1 | -8 | 109 | . | .
N/C(=N\O)c1ncc(C(F)(F)F)cc1Cl | -23 | 102 | . | .
COc1ccc(-c2cc(C(=O)N(C)Cc3ccccc3)no2)cc1 | . | 102 | 90 | 61
O=c1cc(N2CCc3ccccc32)[nH]c(=O)n1-c1ccccc1 | 3 | 97 | 93 | 95
CCN1CCN(CCN=C2NS(=O)(=O)C(c3ccc(F)cc3)=C2C)CC1 | -22 | 108 | 94 | 96
CC1CCN(S(=O)(=O)c2ccc(C(=O)Nc3sc4c(c3C(N)=O)CC(C)(C)NC4(C)C)cc2)CC1 | . | 101 | 123 | 90
CCCCN(C(=O)CCn1c(=O)oc2ccccc21)c1ccccc1 | -16 | 98 | 110 | 86
Cn1c(=NC(=O)c2ccc(S(=O)(=O)N3CCCC3)cc2)sc2cc(F)ccc21 | 33 | 105 | 96 | 98
CC1(C)CC(=O)C2=C(C1)N(c1ccccc1)C(=O)CC2c1cccnc1 (stereo not drawn) | 4 | . | 94 | 92
CC(C)c1ccc(NC(=O)C2CCC(CNS(=O)(=O)c3cccc4nsnc34)CC2)cc1 (stereo not drawn) | . | 103 | 103 | 79
CCOc1ccc(C2=C(CN(C)C)C(c3ccc(F)cc3)c3ccccc3O2)cc1 (stereo not drawn) | . | 109 | 49 | 50
CC(=O)N1CCc2c(sc(NC(=O)CSc3ccc(C)cc3)c2-c2nc3ccccc3s2)C1 | . | 100 | 125 | 92
Cc1ccc(CNC(=O)Cn2ccc(C(F)(F)F)n2)cc1 | -30 | . | 85 | 92
CC1=NNC(=O)/C1=C\c1cn(-c2ccccc2)nc1-c1ccc(F)cc1 | 10 | . | 76 | 5
CCOC(=O)c1c(NC(=O)c2cc(CC)on2)sc2c1CCCC2 | -28 | 101 | . | .
CN(C(=O)c1noc2c1CSc1ccccc1-2)c1cccc(C(F)(F)F)c1 | . | 101 | 78 | 76
CC(C)NC(=O)Cn1nc(N2CCN(c3ccccc3)CC2)ccc1=O | -48 | 103&105 | 95 | 91
Cn1c(-c2nonc2NC(=O)CSc2nc3ccccc3o2)nc2ccccc21 | -3 | 106 | . | .
COc1ccc(C2/C(=C(/O)c3ccccc3)C(=O)C(=O)N2CC(OC)OC)c(OC)c1 (stereo not drawn) | -6 | 105 | 105 | 94
Cc1nccn1S(=O)(=O)c1ccc(Cl)cc1Cl | -20 | 101 | 109 | 93
CCCOn1nnnc1-c1ccccc1 | -9 | 104 | 108 | 104

Structural class, the compounds so far with an aryl thioether with sulfur outside any ring (3)
SMILES | HCMV UL50-53 inh | GIV-Gai inh | Sa growth inh | Sa growth inh second temp
CCNc1nc(NCC)n2c(SCC3CN(Cc4ccccc4)CCO3)nnc2n1 (stereo not drawn) | -22 | . | 96 | 82
CC(=O)N1CCc2c(sc(NC(=O)CSc3ccc(C)cc3)c2-c2nc3ccccc3s2)C1 | . | 100 | 125 | 92
Cn1c(-c2nonc2NC(=O)CSc2nc3ccccc3o2)nc2ccccc21 | -3 | 106 | . | .

Next compounds follow.
SMILES | HCMV UL50-53 inh | GIV-Gai inh | Sa growth inh | Sa growth inh second temp
NC(=O)C1CCN(CCC(=O)Nc2ccccc2)CC1 | -1 | . | 109 | 93
N#CC(C(=O)Nc1cccc(C(F)(F)F)c1)C(=S)Nc1ccccc1Cl (stereo not drawn) | -4 | 104 | 56 | 65
Cc1cc2oc(C(=O)Nc3ccc(S(=O)(=O)N4CCC(C)CC4)cc3)cc(=O)c2cc1C | 6 | 105 | 98 | 93
Cc1ccc(CNC(=O)C(C)n2nc(C)n3c(cc4sccc43)c2=O)cc1 (stereo not drawn) | -20 | 104 | 117 | 88
CCOc1ncccc1C(=O)OC(C)C(=O)Nc1ccccc1 (stereo not drawn) | -20 | . | 70 | 89
CC(=O)NC(O)C(=O)c1ccco1 (stereo not drawn) | -7 | 97 | 91 | 85
Cc1ccc(CNC(=O)c2ccc(CS(=O)Cc3ccc(C)cc3)o2)cc1 (stereo not drawn) | -35 | 103 | 104 | 88
CSc1ccc(NC(=O)Cn2nnnc2-c2ccccc2F)cc1 | -35 | 97 | 84 | 87
CC(C)(CN)N1CCOCC1 | -4 | . | 74 | 85
Cc1cc(Br)cc(C)c1NC(=O)c1sc2ncn(CC(=O)N3CCCC(C)C3)c(=O)c2c1C (stereo not drawn) | -26 | 109 | . | .
Cc1nc(-c2nnc(SCC(=O)Nc3ccc(C(C)C)cc3)n2C)cs1 | 3 | 116 | 109 | 92
CCC(CC)NC(=O)c1ccc2ncsc2c1 | 5 | . | 115 | 107

Ordered by the number under GIV-Gai inh (smallest number first): four of the compounds above
| compound | GIV-Gai inh | Sa growth inh | Sa growth inh second temp |
| --- | --- | --- | --- |
| COc1ccc(-c2cc(C(=O)N(C)Cc3ccccc3)no2)cc1 | 102 | 90 | 61 |
| CC(C)c1ccc(NC(=O)C2CCC(CNS(=O)(=O)c3cccc4nsnc34)CC2)cc1 (stereo not drawn) | 103 | 103 | 79 |
| Cc1ccc(CNC(=O)C(C)n2nc(C)n3c(cc4sccc43)c2=O)cc1 (stereo not drawn) | 104 | 117 | 88 |
| CCN1CCN(CCN=C2NS(=O)(=O)C(c3ccc(F)cc3)=C2C)CC1 | 108 | 94 | 96 |

New compounds follow.
SMILES | HCMV UL50-53 inh | GIV-Gai inh | Sa growth inh | Sa growth inh second temp
CCOc1ccc(OCC)c(NC(=O)Nc2ccc3c(c2)N(C)C(=O)CS3)c1 | 6 | 112 | . | .
CCN(C(=O)CSc1nnc(C)o1)c1cccc2ccccc12 | -36 | . | 87 | 84
CCC(C)NC(=O)c1ccc2c(c1)nc1n2CCCCC1 (stereo not drawn) | . | 103 | 87 | 91
O=C(CCCc1nc(-c2ccccc2)no1)Nc1nncs1 | -17 | 94 | . | .
CC(=O)Nc1sc(C)c(C)c1C#N | -18 | . | 112 | 82
CCCCC(=O)NC1(C(F)(F)F)C(=O)N(Cc2ccco2)C(C)=C1C(=O)OC (stereo not drawn) | -15 | 107 | 88 | 95
COc1ccc(-c2cc(=O)n3[nH]c(C)c(-c4ccc(OC)cc4)c3n2)cc1 | 7 | 92 | . | .
COc1ccc(Cc2nc3ccccc3n2C)cc1 | 7 | 105 | 106 | 101
Cc1ccc(C(=O)Nc2ccc(S(=O)(=O)O)c3cc(S(=O)(=O)O)cc(S(=O)(=O)O)c23)cc1NC(=O)c1cccc(NC(=O)Nc2cccc(C(=O)Nc3cc(C(=O)Nc4ccc(S(=O)(=O)O)c5cc(S(=O)(=O)O)cc(S(=O)(=O)O)c45)ccc3C)c2)c1 | -50&-18&0&7 | 76*! | 94&102 | 70&87
CSC1=C(C#N)C(c2ccccc2)CC(=O)N1 (stereo not drawn) | -6 | . | 105 | 90
CC(=O)NC1C(Oc2ccccc2C)OC2COC(C)(C)OC2C1O (stereo not drawn) | -4 | 101 | 111 | 74
CC(C)COc1ccc(C(=O)Nc2cc(-c3ccccc3)no2)cc1 | -28 | 99 | 99 | 86
CCN1CCC[C@H]1CNC(=O)c1c(O)c(Cl)cc(Cl)c1OC | -25&-9&-18 | 101&107 | 96&96 | 92&95
CC(/C=N/n1c(-c2cccnc2)n[nH]c1=S)=C\c1ccccc1 | -32 | 106 | 134 | 110
O=C(C1=C(O)c2ccccc2S(=O)(=O)N1)c1ccc(Cl)s1 | . | 106 | 45 | 28
O=C(Nc1ccc2c(c1)OCCO2)c1cccnc1Oc1ccccc1 | -12 | 101 | 67 | 73
CCCCCCC1/C(=N/O)CCC1C(=O)OC (stereo not drawn) | -9 | 102 | 91 | 104
Cn1nc(C(F)(F)F)c(-c2ccccc2)c1NC(=O)CCC(=O)O | -4 | 99 | 103 | 88
CSc1nsc(SC)c1NC(=O)OC1CCCCC1 | -8 | 99 | 88 | 77
S=c1c2c(nc3nc[nH]n13)CCC2 | -15 | 104 | 91 | 82
Cc1ccc2ncnc(Nc3ccc(Cl)cc3)c2c1 | -3 | 101 | . | .
CC1(C)C(=O)N(c2cccc(Cl)c2)C(=O)C1(C)C | -41 | 96 | 96 | 83
CCOC(=O)CSc1nc2c([nH]c3ccccc32)c(=O)n1-c1ccc(OCC)cc1 | . | 96 | 110 | 89
CCC1(C)CC(=O)c2c(ccc3oc(C(=O)N4CCN(Cc5ccccc5)CC4)c(C)c23)O1 (stereo not drawn) | 8 | 102 | . | .

One compound at a time, as listed above.
Record of `NC(=O)C1CCN(CCC(=O)Nc2ccccc2)CC1` = HCMV UL50-53 inh = -1; GIV-Gai inh = .; Sa growth inh = 109; Sa growth inh second temp = 93
Record of `O=C(Nc1ccc2c(c1)OCCO2)c1cccnc1Oc1ccccc1` = HCMV UL50-53 inh = -12; GIV-Gai inh = 101; Sa growth inh = 67; Sa growth inh second temp = 73
Record of `Cc1ccc(C(=O)Nc2ccc(S(=O)(=O)O)c3cc(S(=O)(=O)O)cc(S(=O)(=O)O)c23)cc1NC(=O)c1cccc(NC(=O)Nc2cccc(C(=O)Nc3cc(C(=O)Nc4ccc(S(=O)(=O)O)c5cc(S(=O)(=O)O)cc(S(=O)(=O)O)c45)ccc3C)c2)c1` = HCMV UL50-53 inh = -50&-18&0&7; GIV-Gai inh = 76*!; Sa growth inh = 94&102; Sa growth inh second temp = 70&87

Part of the list above in order of SMILES length, falling:
SMILES | HCMV UL50-53 inh | GIV-Gai inh | Sa growth inh | Sa growth inh second temp
CC(/C=N/n1c(-c2cccnc2)n[nH]c1=S)=C\c1ccccc1 | -32 | 106 | 134 | 110
CCCCCCC1/C(=N/O)CCC1C(=O)OC (stereo not drawn) | -9 | 102 | 91 | 104
S=c1c2c(nc3nc[nH]n13)CCC2 | -15 | 104 | 91 | 82

The results go on:
SMILES | HCMV UL50-53 inh | GIV-Gai inh | Sa growth inh | Sa growth inh second temp
COc1ccccc1C(=O)Nc1nc2ccccc2s1 | -12 | 107 | 94 | 90
CC(=O)Nc1ccc(C(=O)OCC(=O)N(C)C2CCCCC2)cc1 | -10 | . | 114 | 93
CCCN1CCN(CCCNC(=O)C(CC)n2nc(C)n3c(cc4occc43)c2=O)CC1 (stereo not drawn) | -21 | 102 | 101 | 89
CCOC(=O)c1c[nH]c(=S)[nH]c1=O | 4 | 111 | 103 | 91
Cc1nc2cccnc2n1-c1cc(C(=O)NCc2ccccc2)ccc1Cl | -2 | 101 | . | .
CCOc1ccc(-c2cc(C)n3nc(C(=O)Nc4cc(Cl)ccc4O)cc3n2)cc1 | -18 | 101 | 84 | 86
CNCc1ccc2c(c1)n(C)c(=O)n2C | -6&-14 | 101&104 | 96 | 87
CC(C)CCn1c(=O)c2ccccc2n2c(COC(=O)c3cc(F)cc(F)c3)nnc12 | -10 | . | 115 | 83
CN1C(C(=O)Nc2ccc(F)cc2F)=CC(c2ccco2)=NS1(=O)=O | -72 | 106 | 135 | 86
COc1ccccc1NC(=O)c1ccc(-n2cccn2)cc1 | -25 | 105 | 114 | 79
CNC(=O)C1CCC(Cn2c(=O)c3sccc3n(CC(=O)Nc3cc(F)ccc3F)c2=O)CC1 (stereo not drawn) | . | 102 | 96 | 90
CC(C)(C)C(=O)N(Cc1cccnc1)Cc1cccs1 | -6 | 106 | 119 | 98
C=CCN(CC=C)C(=O)/C=C/c1ccccc1 | -8 | 102 | 101 | 79
Fc1ccc(-c2ccc(CNCC3CCCO3)o2)cc1 (stereo not drawn) | -7 | 99 | . | .
CC(c1ccccc1)N1Cc2c(oc3ccccc3c2=O)N(C(=O)OCc2ccccc2)C1 (stereo not drawn) | -27 | 118 | 90 | 72
COc1ccccc1-n1cnnc1SCC#N | -21 | . | 100 | 95
CCCN1C(=O)/C(=N\OCC(=O)NCCC2=CCCCC2)c2ccccc21 | -72 | . | 96 | 87
CCCOc1ccc(Cn2c(=O)sc3ccccc32)cc1 | -8 | 106 | 99 | 95
O=C(CN1Cc2ccccc2C1=O)Nc1ccc(Br)cc1F | -7 | 111 | 95 | 105
CN(C(=O)CSc1nc2ccccc2[nH]1)c1ccc(F)cc1 | -24 | 101 | 98 | 91
Cc1[nH]n(-c2ccccc2)c(=O)c1/C=N/Nc1nnc(C)c(=O)[nH]1 | -33 | 103 | 84 | 84
O=C(NCc1ccccc1)C1CCN(c2nc3ccccc3nc2C(F)(F)F)CC1 | -10 | 107 | . | .
O=C(NCc1ccco1)c1ccc(Cl)c(NS(=O)(=O)c2ccc(F)cc2)c1 | 14 | . | 98 | 95
O=c1oc2ccccc2n1CO | -31 | 97 | 105 | 86
Cc1nc2ncnn2c(C)c1CCC(=O)N(C)c1ccccc1 | . | 105 | 109 | 96
CN1CCN(CCCNC(=O)Cn2ncc3c4ccccc4n(C)c3c2=O)CC1 | -7 | 109 | 104 | 93

Screening results from PubChem BioAssay.
